CFTR F508del = total CFTR protein upregulators, primary screen, cell-based, HeLa F508del-CFTR, immunofluorescence, viability (AID 1224863); HeLa F508del-CFTR, immunofluorescence total CFTR, 24 h; by the record results were divided by relative cell number; some inactives read as strong as hits; calls, or highest fold increase where a dose series was run; actives 0.1% (n = 10,000); in the data nearly all actives have a first-pass fold increase above 1.5; a few of its hits are not listed in these tables;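 also: total CFTR protein by anti-CFTR immunofluorescence in fixed cells; first pass at 25 µM or 10 µg/mL by library and series up to twice that; 1 = untreated cells; first-pass hits also needed half or more of the cells alive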
CFTR F508del fold 25 µM = second read-out of CFTR F508del, no call of its own (marks repeat the call); fold increase; measured here: primary screen single dose 25 uM; library dosed in µM
CFTR F508del fold 10 ug/mL = further read-out of CFTR F508del, marked with its call; fold increase; measured here: primary screen 10 ug/mL
CFTR F508del viability 25 µM = further read-out of CFTR F508del, marked with its call; viability, %; measured here: primary viability 25 uM; library dosed in µM;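 0% = killed and 100% = untreated cells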
CFTR F508del viability 10 ug/mL = second read-out of CFTR F508del, no call of its own (marks repeat the call); viability, %; measured here: primary viability 10 ug/mL;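 0% = killed and 100% = untreated cells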
* marks the source's active call; other numbers are inactive results; i = inactive; nt = not tested or not shown; + = active, no number; & = joins results of further samples. This is a subset (hit frequency here may not be typical).

SMILES | CFTR F508del | CFTR F508del fold 10 ug/mL | CFTR F508del viability 10 ug/mL | others
CO[C@H]1C[C@@H]2CC[C@@H](C)[C@@](O)(O2)C(=O)C(=O)N2CCCC[C@H]2C(=O)O[C@H]([C@H](C)C[C@@H]2CC[C@@H](O)[C@H](OC)C2)CC(=O)[C@H](C)C=C(C)[C@@H](O)[C@@H](OC)C(=O)[C@H](C)C[C@H](C)/C=C/C=C/C=C1C | i | nt | nt | CFTR F508del fold 25 µM=1.2&0.99;CFTR F508del viability 25 µM=76&77
CC(Cc1cccs1)NC(=O)c1ccoc1 (stereo not drawn) | i | 1.1 | 98
CC(C)(C#N)c1cc(Cn2cncn2)cc(C(C)(C)C#N)c1 | i | nt | nt | CFTR F508del fold 25 µM=0.95&0.87&0.98;CFTR F508del viability 25 µM=90&89&105
Cc1cc(=O)n2nc(N3CCC4(CC3)OCCO4)sc2n1 | i | 1.1 | 105
O=C1C2CCCCC2C(=O)N1CN1CCc2ccccc2C1 (stereo not drawn) | i | 0.96 | 113
O=C(CCC1Cc2ccccc2NC1=O)NC1=NCCS1 (stereo not drawn) | i | 1 | 109
ClC1(Cl)CC1COc1nnc(-c2ccccc2)o1 (stereo not drawn) | i | 0.87 | 89
Cc1ccc(C(=O)/C=C/c2cc(Cl)c3c(c2)OCCO3)o1 | 1.4 | 1.5 | 81
N#Cc1c2n(c(=O)n(Cc3ccccc3Cl)c1=O)CCC2 | i | 1 | 93
CONC(=O)c1c(C)oc(-n2cccc2)c1C#N | i | 1.1 | 96
O=S(=O)(c1ccc(F)c(F)c1F)N1CCN(c2ccccc2F)CC1 | i | 1.1 | 107
CCOC(=O)N1CCNC(=O)CC1 | i | 0.93 | 82
CCSc1nnc(Sc2ccccc2[N+](=O)[O-])s1 | i | 0.9 | 86
O=S(=O)(c1cc(Cl)ccc1Cl)N1CCc2sccc2C1 | i | 1.1 | 86
O=C(CNC(=O)c1ccc(Br)o1)NC1=NCCS1 | i | 1.1 | 102
Cc1sc2ncnc(NC3CCC(C)CC3)c2c1C (stereo not drawn) | i | 1.1 | 89
Cc1onc(-c2c(Cl)cccc2Cl)c1C(=O)N[C@@H]1C(=O)N2[C@@H]1SC(C)(C)[C@@H]2C(=O)O | i | nt | nt | CFTR F508del fold 25 µM=1;CFTR F508del viability 25 µM=87
N#Cc1cnc(SCC2CCCCO2)nc1N (stereo not drawn) | i | 1.2 | 97
CC(C)(O/N=C(\C(=O)N[C@@H]1C(=O)N2C(C(=O)[O-])=C(C[n+]3ccccc3)CS[C@H]12)c1csc(N)n1)C(=O)O | i | nt | nt | CFTR F508del fold 25 µM=1.1;CFTR F508del viability 25 µM=111
CC(C)(C)N=C1NN=C(c2cccc(F)c2)CS1 | i | 0.85 | 75
CC(=O)Nc1ccc(S(=O)(=O)Nc2onc(C)c2C)cc1 | i | nt | nt | CFTR F508del fold 25 µM=1.1;CFTR F508del viability 25 µM=79
CCc1c(C(=O)O)cnn1CCO | i | 1 | 102
CC(C)(C)OC(=O)N1CCN(C(=O)CCn2cnc3sc4c(c3c2=O)CCCC4)CC1 | i | 0.96 | 92
Clc1cc(CNCc2cccs2)cc2c1OCO2 | i | 1 | 85

Quoted at random: two records from the list
SMILES | CFTR F508del | CFTR F508del fold 10 ug/mL | CFTR F508del viability 10 ug/mL | others
CC(C)(C)OC(=O)N1CCN(C(=O)CCn2cnc3sc4c(c3c2=O)CCCC4)CC1 | i | 0.96 | 92
N#Cc1cnc(SCC2CCCCO2)nc1N (stereo not drawn) | i | 1.2 | 97

New compounds follow
SMILES | CFTR F508del | CFTR F508del fold 10 ug/mL | CFTR F508del viability 10 ug/mL | others
Cc1cc(OCC(=O)N2CCN(S(=O)(=O)c3cccs3)CC2)no1 | i | 1.1 | 97
CCN(CC)CCOc1ccc2c(c1)C(=O)c1cc(OCCN(CC)CC)ccc1-2 | + | nt | nt | CFTR F508del fold 25 µM=3.6*;CFTR F508del viability 25 µM=73*
C=C(C)CN1CCN(S(=O)(=O)c2c(C)noc2C)CC1 | i | 0.97 | 96
O=C(Nc1cc(C(F)(F)F)ccc1N1CCOCC1)N1CCOC2CCCCC21 (stereo not drawn) | i | 0.94 | 95
CCN(CC)S(=O)(=O)N1CCN(Cc2nc3ccccc3o2)CC1 | i | 1 | 75
CC1CN(S(=O)(=O)N(C)Cc2nc3ccccc3[nH]2)CC(C)O1 (stereo not drawn) | i | 0.99 | 86
Cc1noc(C)c1S(=O)(=O)N1CCCN(C(=O)CSC(C)C)CC1 | i | 1.1 | 94
O=C(O)c1cc(-c2ccccc2)nc2ccccc12 | i | nt | nt | CFTR F508del fold 25 µM=1.1;CFTR F508del viability 25 µM=83
CC1CC1CN (stereo not drawn) | i | 1.1 | 102
CCCCNS(=O)(=O)c1ccc(S(=O)(=O)N2CCCCC2)cc1 | i | 1.1 | 96
CCOc1ccc(S(=O)(=O)N2CCN(CN3C(=O)C(=O)N(C4CC4)C3=O)CC2)cc1 | i | 1.1 | 97
CON(C)S(=O)(=O)c1ccc(NS(=O)(=O)c2ccc(Cl)c3ncccc23)cc1 | i | 1 | 112
Cn1c(=O)c2c(ncn2CCCC(=O)NC(c2cccs2)C2CCCC2)n(C)c1=O (stereo not drawn) | i | 0.88 | 89
O=C(c1n[nH]c(=O)c2ccccc12)N1CCc2[nH]c3ccccc3c2C1 | i | 0.89 | 70
COc1ccc(-c2noc(CSc3nc(C)cs3)n2)cc1OC | i | 0.95 | 98
CCn1c(C2CC2)nn(CN2CCc3sccc3C2)c1=S | i | 1.1 | 103
CC(=O)OCC(=O)[C@@]1(O)CC[C@H]2[C@@H]3CCC4=CC(=O)CC[C@]4(C)[C@H]3[C@@H](O)C[C@@]21C | i | nt | nt | CFTR F508del fold 25 µM=1.1;CFTR F508del viability 25 µM=95
CC1CCC(NC(=O)C2CCCN(C(=O)N3CCCC3)C2)CC1 (stereo not drawn) | i | 1 | 102
C[C@]12CCC(=O)C=C1C=C[C@@H]1[C@@H]2CC[C@@]2(C)[C@H]1CC[C@@]21CCC(=O)O1 | i | nt | nt | CFTR F508del fold 25 µM=1;CFTR F508del viability 25 µM=88
CCN(CC)C/C=C/c1c(F)c(F)c(OC)c(F)c1F | i | 1.1 | 101
CCCCSc1nnc2n(C)c(=O)c3ccccc3n12 | i | 0.95 | 97
O=C1CNC(=O)N1CC(O)COC(c1ccc(F)cc1)c1ccc(F)cc1 (stereo not drawn) | i | 0.94 | 85
N#Cc1ccc(/C=C2\CSc3ccccc3C2=O)cc1 | i | 0.79 | 56
Cc1ccc(C(=O)NC(C)Cc2ccco2)o1 (stereo not drawn) | i | 0.9 | 95
Cc1cc(S(=O)(=O)N(CC2CC2)C(C)C)ccc1Br | i | 0.89 | 76
O=C(N1CCN(Cc2nnc3n2CCCCC3)CC1)C(F)(F)c1ccccc1 | i | 1 | 101
CO/N=C(/C(=O)NC1C(=O)N2C(C(=O)O)=C(CSc3nnnn3C)CSC12)c1csc(N)n1 (stereo not drawn) | i | nt | nt | CFTR F508del fold 25 µM=0.95;CFTR F508del viability 25 µM=83
CN(Cc1cc(=O)n2cc(Cl)ccc2n1)C1CCCCCC1 | i | 1 | 98
Cn1c(SCc2cc(Cl)c3c(c2)OCCO3)nnc1-c1cccnc1 | i | 0.91 | 87
Nc1ccnn1Cc1cccc(Br)c1 | i | 1 | 86
Cc1ccc(C(C)NC(=O)Cc2csc(C(C)C)n2)o1 (stereo not drawn) | i | 1.1 | 87
Cc1noc(C)c1S(=O)(=O)NCc1cccnc1OC1CCCC1 | i | 0.91 | 98
COC(=O)c1c(C)[nH]c(C(=O)C(C)Sc2nnnn2C2CC2)c1C (stereo not drawn) | i | 1 | 90
O=C(c1ccc([N+](=O)[O-])s1)N1CCNCC1 | i | 0.83 | 78
Cc1nc(N2CCC(O)CC2)c2c3c(sc2n1)CCC3 | i | 0.93 | 95
COc1ccccc1-c1noc(CSC23CC4CC(CC(C4)C2)C3)n1 | i | 0.79 | 70
Cc1ccc(/C=C/C(=O)NC2CC2)o1 | 1.1 | 2.6 | 85
O=S(=O)(Nc1nc2ccccc2nc1N1CCCC1)c1ccc(Br)cc1Cl | i | 1.1 | 80
Cc1cnc(C(=O)NCc2ccc(C)n2C)cn1 | i | 1.3 | 98
Cc1occc1-c1nnc(SCc2ccc(F)cc2Cl)o1 | i | 0.97 | 95
COc1ccc(OC)c(CSc2nc(C3CC3)n(-c3ccccc3)n2)c1 | i | 1 | 87
c1cncc(-c2nc(N3CCOCC3)c3c4c(sc3n2)CCCC4)c1 | i | 1.1 | 102
CONC(=O)c1n[nH]c(=O)c2ccccc12 | i | 1.1 | 94
CC1(C)O[C@@H]2[C@@H](CO[C@@]3(COS(N)(=O)=O)OC(C)(C)O[C@@H]23)O1 | i | nt | nt | CFTR F508del fold 25 µM=1&1.1;CFTR F508del viability 25 µM=108&104
N#Cc1ccc(OCCOc2ccc3c(c2)OCO3)cc1 | i | 1.1 | 83
CC1CC(=O)c2c(OCc3nnc4n(C)c(=O)c5ccccc5n34)ccc(Cl)c21 (stereo not drawn) | i | 1 | 97
O=[N+]([O-])c1c(Cc2ccccc2)nc2ccccc2c1-c1ccccc1 | i | 1.1 | 96
CS(=O)(=O)NC1CCCN(c2nc(-c3ccsc3)nc3ccccc23)C1 (stereo not drawn) | i | 1 | 100

Some of these compounds in order of heavy-atom count, lowest first.
SMILES | CFTR F508del | CFTR F508del fold 10 ug/mL | CFTR F508del viability 10 ug/mL | others
Cc1ccc(/C=C/C(=O)NC2CC2)o1 | 1.1 | 2.6 | 85
CONC(=O)c1n[nH]c(=O)c2ccccc12 | i | 1.1 | 94
N#Cc1ccc(OCCOc2ccc3c(c2)OCO3)cc1 | i | 1.1 | 83
CC1(C)O[C@@H]2[C@@H](CO[C@@]3(COS(N)(=O)=O)OC(C)(C)O[C@@H]23)O1 | i | nt | nt | CFTR F508del fold 25 µM=1&1.1;CFTR F508del viability 25 µM=108&104
c1cncc(-c2nc(N3CCOCC3)c3c4c(sc3n2)CCCC4)c1 | i | 1.1 | 102

Later entries.
SMILES | CFTR F508del | CFTR F508del fold 10 ug/mL | CFTR F508del viability 10 ug/mL | others
C[C@]12C=CC(=O)C=C1CCC1C2C(=O)C[C@@]2(C)C1CC[C@]2(O)C(=O)CO (stereo partly drawn) | i | nt | nt | CFTR F508del fold 25 µM=1;CFTR F508del viability 25 µM=107
Fc1ccc(-c2[nH]ncc2CNCc2ccccc2Cn2cncn2)cc1 | i | 1 | 104
O=C1NC2(CCCCCC2)C(=O)N1CN1CCC(c2nc3ccccc3s2)CC1 | i | 1.1 | 113
CCOc1cc2c(cc1CNS(=O)(=O)c1cccs1)OC(C)C2 (stereo not drawn) | i | 1.1 | 99
NC(Cc1ccc(Cl)cc1)C(=O)O (stereo not drawn) | i | nt | nt | CFTR F508del fold 25 µM=1.1;CFTR F508del viability 25 µM=89
CC(C#N)Sc1nnnn1C1CCCCC1 (stereo not drawn) | i | 0.92 | 95
CC1CCC2(CC1)NC(=O)N(CN1CCN(Cc3ccc4c(c3)OCO4)CC1)C2=O (stereo not drawn) | i | 1 | 100
CCc1ncncc1C(=O)O | i | 1 | 96
O=C(N1CCCC1)N1CCN(S(=O)(=O)c2cccc3nsnc23)CC1 | i | 0.95 | 96
COC(=O)c1sc(N)c(C(=O)OC)c1CN1C(=O)c2ccccc2S1(=O)=O | i | 1 | 91
Cc1nn(CC(=O)Nc2nc3c(s2)CN(C(=O)OC(C)(C)C)CC3)c(C)c1[N+](=O)[O-] | i | 0.9 | 89
Cn1cnc2c1c(=O)n(CC(=O)NC1CCCCCC1)c(=O)n2C | i | 1.1 | 103
O=C1NC2(CCCCCC2)C(=O)N1CN1CCCN(S(=O)(=O)c2ccc(F)cc2)CC1 | i | 1.1 | 95
C=CCn1c(SC(C)C#N)nc2c(oc3ccccc32)c1=O (stereo not drawn) | i | 0.98 | 99
Cc1cc(C(=O)COC(=O)c2ccc([N+](=O)[O-])o2)c(C)n1Cc1ccc2c(c1)OCO2 | i | 1.3 | 86
Cc1ccc(/C=C/c2nc(SCC(C)C)n[nH]2)o1 | i | 1.4 | 92
CCOC(=O)N1CCC(C(=O)NC(C)C23CC4CC(CC(C4)C2)C3)CC1 (stereo not drawn) | i | 0.99 | 93
CC(=O)c1ccc(N2CCN(Cn3nnn(CC4CCCO4)c3=S)CC2)cc1 (stereo not drawn) | i | 1.1 | 109
NC1=NC(c2cn(-c3ccccc3)nc2-c2cc3ccccc3oc2=O)n2c(nc3ccccc32)N1 (stereo not drawn) | i | 1.2 | 104
Cc1ccc(C)c(COn2nnc3ccc(Cl)cc32)c1 | i | 0.91 | 74
O=C(Nc1cccc2c(=O)cc(-c3nn[nH]n3)oc12)c1ccc(OCCCCc2ccccc2)cc1 | i | nt | nt | CFTR F508del fold 25 µM=1.1;CFTR F508del viability 25 µM=111
COC(=O)C(C)Sc1n[nH]c(/C=C/c2cccs2)n1 (stereo not drawn) | i | 1.1 | 119
Cc1noc(C)c1S(=O)(=O)N1CCN(C(=O)CC23CC4CC(CC(O)(C4)C2)C3)CC1 | i | 1 | 94
Nc1nc(Cc2ccc(Br)cc2)cs1 | i | 0.7 | 63
NC(N)=NC(=O)c1nc(Cl)c(N)nc1N | i | nt | nt | CFTR F508del fold 25 µM=1.1&1&1;CFTR F508del viability 25 µM=95&99&96

Assay outcomes deposited in PubChem by Southern Research Institute.
